From PubChem
VDR inhibitor – inhibitors of human vitamin D receptor; P11473; 400,000 tested, 0.93% active; VDR-SRC2-3 peptide fluorescence polarization, 2 h; Potency, µM, inactives show max response, negative = inhibition, usual class: inhibitors; active = well fitted inhibition curve with a large enough effect; inconclusive = small, poorly fitted or top-dose-only effect, or another doubt; inactive = no such curve, though single readings can be large or run the other way; note: series mostly up to about 120 µM
Target sequence (P11473 whole entry, looked up): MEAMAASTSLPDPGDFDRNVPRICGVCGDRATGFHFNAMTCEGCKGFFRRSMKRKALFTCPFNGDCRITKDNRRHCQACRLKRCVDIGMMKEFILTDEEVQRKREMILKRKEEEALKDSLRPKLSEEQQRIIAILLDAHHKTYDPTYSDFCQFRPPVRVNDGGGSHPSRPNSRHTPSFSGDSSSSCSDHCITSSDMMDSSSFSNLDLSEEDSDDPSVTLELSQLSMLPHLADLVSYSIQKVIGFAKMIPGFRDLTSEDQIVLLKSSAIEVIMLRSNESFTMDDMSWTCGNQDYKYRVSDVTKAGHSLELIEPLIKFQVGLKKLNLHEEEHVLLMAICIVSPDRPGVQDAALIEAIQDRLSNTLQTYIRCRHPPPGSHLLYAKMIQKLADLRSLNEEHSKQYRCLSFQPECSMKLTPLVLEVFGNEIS
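FP read-out; VDR + SRC2-3 coactivator peptide; 23 nl compound by pintool; 2 h RT incubation; reagents held at 4 deg C, protected from light.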
An asterisk follows results filed as active; ? = inconclusive; & = joins results of further samples; [ ] = remark or other dose. % is set by controls: 0 for no effect and ±100 for the full control effect; potency is the fitted concentration of half-maximal effect.

SMILES | VDR inhibitor
O=C(/C=C/c1ccc([N+](=O)[O-])cc1)NCc1ccco1 | -7.4%
CN(CCO)c1nc(N)c(C#N)c(CC#N)c1C#N | 21.3%
Cn1cnnc1SCC(=O)Nc1ccccc1F | 2.7%
COc1ccc(-c2nc(-c3ccc(C(=O)O)cc3)no2)cc1 | 4.2%
CCS(=O)(=O)c1ccc(O)c(NC(=O)Nc2cccc3ccccc23)c1 | 1.3%
CSc1ncccc1C(=O)OCC(=O)N1CC2(C)CC1CC(C)(C)C2 (centres undefined) | -10.2%
CCOc1ccc(NC(=O)C/C(C)=N/NC(=O)COc2ccc(Br)cc2C)cc1 | 7.9%
COc1ccccc1NC(=O)c1cc2c(-c3ccccc3)nn(-c3ccccc3)c2s1 | 8.9%
O=C(NCc1ccccc1Cl)c1ccc2c(c1)NC(=O)C(CS(=O)(=O)Cc1ccc(F)cc1Cl)N2 (centres undefined) | -7.2%
O=C1CCCN2N=C(SCC(=O)Nc3ccc(Br)cc3)SC2=N1 | -19.9%
CCCCNC(=O)c1cc2c(=O)n3cccc(C)c3nc2s1 | -4.4%&4.1%
CCCCc1nc2ccccc2[nH]1 | -23.3%
Cc1ccc(NC(=O)C2CCN(S(=O)(=O)c3cc([N+](=O)[O-])ccc3Cl)CC2)nc1 | -11.1%
Cc1cc(C)nc(NN2C(=O)/C(=C/c3ccccc3)SC2=S)n1 | 100.9%[activator]
COC(=O)/C=C/c1ccc(-n2ccnc2)cc1 | -20.9%
O=c1[nH]nnc2c1sc1nc(N3CCOCC3)c3c(c12)CCCC3 | -3.3%
CN(Cc1c(C(=O)N/N=C/c2ccccc2)nnn1-c1nonc1N)c1ccccc1 | -4.3%
COc1ccc(Cl)cc1N(C(C)=O)c1nc(C)cc(C)c1C#N | -16.7%
Cc1cc(C)cc(C(=O)NCC(=O)OCC(=O)N2c3ccccc3NC(=O)C2(C)C)c1 | -5.3%
COC(=O)[C@@]12CCCN1[C@H](c1ccc(-c3ccc(OC)cc3)c(OC)c1)[C@H]1C(=O)N(C)C(=O)[C@H]12 | -17.9%
COc1ccc(-c2nnc(SCc3c(C)noc3C)n2N)cc1OC | -9.7%
CC(C)C1CC(c2ccccc2)(C(CN)CO)CCO1 (centres undefined) | -17.0%
CCc1cc2cccc(C)c2nc1SCC(=O)Nc1cc(C)on1 | -20.1%
O=S(=O)(Nc1ccc(-c2ccc(N3CCCC3)nn2)cc1)c1cccc(C(F)(F)F)c1 | 17.8%
O=C1CC(c2ccco2)CC(O)=C1C=Nc1cc(Cl)cc(Cl)c1 (centres undefined) | -19.2%
CCn1c(SCC(=O)Nc2sc3c(c2C#N)CCCC3)nnc1-c1ccco1 | -10.9%
Cc1ccc([N+](=O)[O-])cc1S(=O)(=O)Nc1cccc(-c2ccc(N3CCOCC3)nn2)c1 | -13.9%
O=C(O)c1ccc(N=Cc2nc(-c3ccco3)oc2O)cc1 | -2.6%
COc1ccc(-n2cc(-c3ccccc3)[n+]3c2CCCCC3)cc1 | -3.5%
COc1cccc(-c2nc(SCC(=O)NCc3ccco3)c3c(=O)n(C)c(=O)n(C)c3n2)c1 | 4.4%
CCc1ccc(-n2c(=O)c3c(C)c(C(=O)N(C)C)sc3n(CC(=O)NCc3ccco3)c2=O)cc1 | 14.3%
O=C(NCc1ccc2c(c1)OCO2)c1ccco1 | 9.2%
Cc1nn(-c2cc(N3CCCCCC3)ccc2[N+](=O)[O-])c(=O)c2ccccc12 | -5.3%
CCOc1cccc(/C=N/N2C(C)CCCC2C)c1O (centres undefined) | 12.7%
O=C(C1=C[C@@H](C2CCCCC2)C[C@@H](OCc2ccc(CO)cc2)O1)N1CCN(Cc2ccc3c(c2)OCO3)CC1 | -22.6%
CCOCCCNC(=S)N1CCC(C(=O)c2ccc(C)cc2)CC1 | 0.6%
CCOc1ccc(Nc2nc(Nc3ccc(OCC)cc3)nc(N3CCOCC3)n2)cc1 | -3.7%
CCOC(=O)c1c(NC2=NS(=O)(=O)c3ccccc32)sc2c1CCC(C)C2 (centres undefined) | -14.7%
COc1cc(/C=N/NS(=O)(=O)c2ccc(C(C)(C)C)cc2)cc([N+](=O)[O-])c1O | -19.9%
Cc1ccc(O)c(NC(=O)C2CCCCC2)c1 | 37.7%[activator]
O=C(Oc1c(Br)cc([N+](=O)[O-])cc1Br)c1cccnc1 | -9.9%
CC(C)CSC1=NSC2=NC(=O)/C(=C\c3cccs3)C(=N)N12 | -15.6%
Cc1ccc(C(=O)N2CCC3(CC2)Oc2ccc(Cl)cc2C(=O)C32CC(c3ccc(Cl)cc3)=NO2)s1 (centres undefined) | -15.5%
CCOc1ccc(N(C)S(=O)(=O)c2ccc3[nH]cc(C(=O)NCCOC)c(=O)c3c2)cc1 | -12.8%
COc1ccc(C(CNC(=O)c2[nH]c(C)c(C(C)=O)c2C)N2CCOCC2)cc1 (centres undefined) | -5.0%
Cc1ccc(C(=O)Nc2nccc(-c3cccs3)n2)cc1 | 7.9%
CC1CCN(C(C(=O)Nc2ccc(C(C)C)cc2)c2ccc3c(c2)OCO3)CC1 (centres undefined) | 9.8%
COc1ccc(C[C@H]2CN3C(=NC[C@@H]3Cc3ccc(O)cc3)N2C[C@H](C)NC(=O)c2ccc(C)c(Br)c2)cc1 | -16.8%
COc1ccc2[nH]c3c(c2c1)CCNC3C1CC=C(C)CC1 (centres undefined) | -20.5%
CCOC(=O)c1ccc(N2C(=O)c3[nH]nc(-c4ccc(OCC)cc4)c3C2c2ccc(OC)cc2OC)cc1 (centres undefined) | -14.3%
COc1ccc(CNC(=O)CCC(=O)N2CCSc3ccccc32)cc1 | 11.7%
CCCCn1c(N)c(N(CCC(C)C)C(=O)CN2C(=O)C3CCCCC3C2=O)c(=O)[nH]c1=O (centres undefined) | -16.3%
Cc1ccc(-n2c(C)cc(/C=N/Nc3ccc([N+](=O)[O-])cn3)c2C)cc1 | -1.3%
CC(=O)C1=C(O)C(=O)N(c2ccc(O)cc2)C1c1cccc(F)c1 (centres undefined) | -1.7%
CC(=O)Cc1nsc(NC(=O)c2ccc(-c3cccc(Cl)c3)o2)n1 | 130.0%[activator]
C=CCC(NCc1ccco1)c1ccc(OC)c(OC)c1 (centres undefined) | -0.4%
O=C(c1ccccc1-c1nc2ccccc2[nH]1)N1CCCCC1 | 17.5%
CCN(C(=O)COC(=O)c1cc(C)oc1C)c1c(N)n(Cc2ccccc2)c(=O)[nH]c1=O | -5.2%
Cc1cccc(OCc2nc(C)cc(=O)[nH]2)c1 | 1.1%
COc1ccc(-c2cc(C(=O)NCCc3ccc(OC)c(OC)c3)c3ccccc3n2)cc1 | 2.5%

Next section, starting with the last 2 of the part before.
SMILES | VDR inhibitor
Cc1cccc(OCc2nc(C)cc(=O)[nH]2)c1 | 1.1%
COc1ccc(-c2cc(C(=O)NCCc3ccc(OC)c(OC)c3)c3ccccc3n2)cc1 | 2.5%
Cc1cc(C)c(S(=O)(=O)NCCc2csc3nc(-c4ccc(Cl)cc4)nn23)c(C)c1 | 2.3%
CC1CCCN(C(=O)c2ccccc2OC2CCN(S(C)(=O)=O)CC2)C1 (centres undefined) | 1.2%
O=C(CNC(=O)c1ccccc1Cl)Nc1ccncc1 | -1.3%
Cc1cccc(OCC(=O)NCc2ccc(F)cc2)c1 | 14.3%
C=C(C)CNC(=S)N/N=C/C1=CCC2CC1C2(C)C (centres undefined) | -10.9%
CC(=O)Nc1ccc(S(=O)(=O)NCc2nnnn2-c2ccc(F)cc2)cc1 | 0.9%
CCc1ccc(-c2cc(C)no2)cc1S(=O)(=O)N1CCN(c2ccccc2OC)CC1 | 19.1%
Cn1cccc1-c1nc2ccc(NC(=O)c3ccccc3)cc2[nH]1 | -5.8%
CCOc1cc(/C=C2\C(=N)N3N=C(S(C)(=O)=O)SC3=NC2=O)ccc1OCCOc1cccc(OC)c1 | ?
CCN(c1cccc(C)c1)S(=O)(=O)c1cc2c3c(c1)CCN3C(=O)CC2 | -16.5%
Cc1ccc(Cl)cc1-n1c(=O)cc(N2CCN(C(=O)c3ccco3)CC2)[nH]c1=O | -10.6%
N#C/C(=C\c1ccc(F)cc1)C(=O)NCC1CCCO1 (centres undefined) | -17.3%
C=CCN(c1ccccc1)S(=O)(=O)c1cccc(C(=O)N2CCCC2)c1 | 13.3%
CNC(=O)C1CC(=O)N(CCCc2ccccc2)C(=Nc2ccccc2)S1 (centres undefined) | 11.3%
CCOC(=O)c1ccc(N2CCCCC2)c(NS(=O)(=O)c2ccc(C)cc2)c1 | 7.6%
CC(C)Cn1c(N)c(C(=O)COC(=O)Cc2cccc(C(F)(F)F)c2)c(=O)n(C)c1=O | -4.1%
Cc1ccc(Cl)cc1NC(=O)Cn1cc2c(n1)CCCC2 | 1.5%
Cc1ccc(N=Cc2c(O)n(C)c(=O)n(C)c2=O)nc1 | -153.3%
COc1cc(CCC(=O)NCc2ccc3c(c2)CCN3C(=O)c2cccc(C)c2)cc(OC)c1OC | 20.9%
Cc1cc(=O)n2nc(N3CCC(C(=O)NCc4ccccc4)CC3)sc2n1 | -9.3%&12.0%
CCCNC(=O)c1ccc(N2CCC3(CC2)CC(c2cccc(Br)c2)=NO3)c(NC(=O)c2ccc(Br)cc2)c1 | -16.9%
O=C(O)CCCN1C(=O)/C(=C/c2ccncc2)SC1=S | -6.6%
Cc1c(C(=O)Nc2ccc(C(F)(F)F)cc2)sc2ncn(CC(=O)N3CCN(c4ccccn4)CC3)c(=O)c12 | -3.8%
CCOC(=O)CSc1ncnc2c1c(-c1ccccc1)cn2-c1ccc(OC)cc1 | -19.0%&6.8%
O=C1/C(=C/c2cccnc2)SC(=S)N1Cc1ccco1 | -37.6%
CC(C)(C)C(=O)N1CCC(O)(CS(=O)(=O)Cc2ccc(Cl)cc2)CC1 | 11.7%
CCOC(=O)c1c(N)c2cc([N+](=O)[O-])ccc2n1C | -17.3%
CCOc1cc(/C=N/NC(=O)c2ccc(CSc3nncn3C)cc2)ccc1OCC(=O)N1CCOCC1 | -3.4%
C=CCn1c(C)cc(C(=O)COC(=O)c2ccc(N)c([N+](=O)[O-])c2)c1C | ?
COc1ccc(C(=O)NCCCn2cccn2)cc1OC1CCN(C(C)=O)CC1 | -22.1%
Clc1nc2ccccc2cc1-c1nnn(-c2ccccc2)n1 | -13.6%
c1ccc2c(c1)NC1(CCCCCC1)n1c-2nc2ccccc21 | -10.6%
CC(C)(C)N(C=C(Cl)Cl)C(=O)NC1CCCCC1 | 1.1%
CCOc1ccc(-c2c(C(=O)N/N=C(\C)c3ccccc3OC)nnn2-c2nonc2N)cc1 | -9.3%
O=C(O)c1ccc(Cl)c(S(=O)(=O)N(Cc2ccccc2)c2ccccc2)c1 | -22.7%
Cc1nc(N)ncc1-c1ccc2c(c1)OCO2 | 0.4%
COc1ccc(NC(=O)c2cccc(NC(=O)c3ccco3)c2)c(OC)c1 | 4.7%
CCO[C@@H]1OC(C(=O)NC2CC2)=C[C@H](c2ccccc2)[C@H]1CCCO | -31.5%
O=C(C1CCN(S(=O)(=O)N2CCOCC2)CC1)N1CCN(Cc2ccccc2)CC1 | -0.3%
COc1ccc(Cc2nc3ccc(C(=O)NC4CCOC4)cc3o2)cc1 (centres undefined) | -10.5%
COc1ccc([N+](=O)[O-])c(OC)c1C(=O)NC(=O)Nc1nc(C)cc(C)n1 | 12.5%
Cc1ccc(CN(C(=O)COc2ccc(Cl)cc2)c2ccccn2)o1 | 6.7%
COc1cccc(NC(=O)C2CCC2)c1 | -2.5%
CCC(=O)Nc1ccccc1N1CCN(S(C)(=O)=O)CC1 | 25.1%
Cc1nc2ccccn2c1C(=O)N/N=C/c1cc(C)n(-c2ccc(Br)cc2)c1C | 10.5%
CC(C)CC(c1nnnn1C(C)C)N1CCN(c2ccccc2)CC1 (centres undefined) | 9.2%
COc1ccc(CNC(=O)C2CCCN(C(=O)c3cnn(-c4ccc(F)cc4)c3-n3cccc3)C2)cc1 (centres undefined) | 3.6%
CCc1ccc(N2CCN(C(=O)c3ccc4c(c3)OCO4)CC2)cc1 | 6.0%

Six entries picked at random from those above:
SMILES | VDR inhibitor
COc1ccc(CNC(=O)C2CCCN(C(=O)c3cnn(-c4ccc(F)cc4)c3-n3cccc3)C2)cc1 (centres undefined) | 3.6%
COc1cccc(NC(=O)C2CCC2)c1 | -2.5%
COc1ccc(Cc2nc3ccc(C(=O)NC4CCOC4)cc3o2)cc1 (centres undefined) | -10.5%
O=C(C1CCN(S(=O)(=O)N2CCOCC2)CC1)N1CCN(Cc2ccccc2)CC1 | -0.3%
CCO[C@@H]1OC(C(=O)NC2CC2)=C[C@H](c2ccccc2)[C@H]1CCCO | -31.5%
COc1ccc(NC(=O)c2cccc(NC(=O)c3ccco3)c2)c(OC)c1 | 4.7%

The list continues:
SMILES | VDR inhibitor
CN(C(=O)c1ccc(NC(=O)Cc2cccc(NC(=O)C3CCCN(C(=O)CCc4ccccc4)C3)c2)cc1)C1CCCC1 (centres undefined) | -0.9%
O=C(O)C1CCN(S(=O)(=O)c2cccs2)CC1 | 8.9%
CC(=O)Nc1ccc(OCC(=O)NC(C)C(C)C)cc1 (centres undefined) | -7.4%
COc1ccc(OC)c(-c2cc(C(=O)N3CCN(c4ncccn4)CC3)c3ccccc3n2)c1 | -1.5%
COc1ccc(CN(C(C)=O)c2ccccc2C(=O)O)cc1 | 10.4%
O=C(c1ccc(Br)s1)N1CCN(S(=O)(=O)c2ccccc2)CC1 | -7.9%
COc1ccc(NC(=O)CN2CCN(S(=O)(=O)c3ccc(Cl)cc3)CC2)cc1 | 1.3%
N#CCCN(Cc1cccnc1)C(=O)c1sc2cc(F)ccc2c1Cl | 14.1%
O=C(CSC1=NCCS1)Nc1ccc(S(=O)(=O)N2CCCCCC2)cc1 | ?
CCOc1ccc(S(=O)(=O)N2CCCC(C(=O)NCc3ccco3)C2)cc1 (centres undefined) | 1.8%
O=C(CCc1nnc(C2CCCCC2)o1)NCc1ccc(F)c(F)c1 | 6.3%
COc1ccccc1CNC(=O)CNCC1CCCO1 (centres undefined) | -8.3%
COc1ccc(C2NC(=O)N(C)C3=C2C(=O)N(c2cccc(C(=O)O)c2)C3)cc1 (centres undefined) | -5.8%

Some of the compounds tested (hit frequency here may not be typical).
